From PubChem BioAssay
HNF4A DNA FP: change in binding of human HNF4A to DNA, primary screen, biochemical, fluorescence polarization, FITC-DNA; Hepatocyte nuclear factor 4-alpha (Homo sapiens), P41235; 1 h; activity change, % at 10 µM; actives 0.3% (n = 360,000); in the data active = activity change above about 30%, passing the limit was not always enough;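 note: controls were the assay level and a saturating level of protein; the project sought stronger binding though the title names inhibitors; some compounds called inactive have numbers as strong as hits; positive values seem to mean higher polarization but the record does not say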
Target sequence (P41235 whole entry, looked up): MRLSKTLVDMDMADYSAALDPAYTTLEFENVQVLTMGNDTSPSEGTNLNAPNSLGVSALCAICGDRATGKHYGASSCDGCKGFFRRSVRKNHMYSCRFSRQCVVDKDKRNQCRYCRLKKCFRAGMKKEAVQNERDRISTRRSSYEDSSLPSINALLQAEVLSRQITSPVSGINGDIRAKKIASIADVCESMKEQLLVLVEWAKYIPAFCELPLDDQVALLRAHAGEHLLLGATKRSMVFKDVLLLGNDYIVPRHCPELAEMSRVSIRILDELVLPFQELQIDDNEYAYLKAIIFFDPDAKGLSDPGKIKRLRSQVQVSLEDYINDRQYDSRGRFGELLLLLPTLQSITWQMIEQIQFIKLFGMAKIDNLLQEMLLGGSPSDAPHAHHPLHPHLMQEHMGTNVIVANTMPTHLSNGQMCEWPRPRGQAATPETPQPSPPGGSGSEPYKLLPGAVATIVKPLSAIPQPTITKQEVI
LANA-H2B inh: blockers of LANA interaction with H2A/H2B – biochemical, FP readout, HTS, primary screen; Protein LANA1 (Human herpesvirus 8 type P (isolate GK18)), Q9QR71; cell-free LANA-H2A/H2B peptide, fluorescence polarization; inhibition, % (concentration not given with the values); actives 0.6% (n = 320,000); AID 2629, 2010; in the data active = inhibition mostly above about 10%, no sharp cut-off; inactive = mostly below about 6.7%;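 note: stock transfer was 7.5 nL into about 10 µL; 0% = median of vehicle wells and 100% = median of positive control wells; one replicate is shown; the record names a cut of 25% in any replicate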
RanGTP-Impb inh: inhibitors of RanGTP-importin-beta interaction, primary screen, biochemical, FRET, CFP-Ran, YFP-importin-beta, homogeneous; actives 1.1% (n = 300,000); inhibition, % (concentration not given with the values); Ran GTPase (GTP-bound) - importin-beta complex; cell-free CFP-Ran/YFP-importin-beta FRET ratio;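 active = most replicates above 15%; inconclusive = exactly half above 15%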;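 note: 0% = DMSO wells and 100% = Ran loaded with GDP instead of GTP; wells of about 40 µL received 100 nL stock; the first replicate is given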
B2AR ag: beta2AR agonists driving receptor internalization, primary screen, cell-based, FAP fluorogen, flow cytometry; Beta-2 adrenergic receptor (Homo sapiens), P07550; Am2.2-beta2AR cells; reference of the scale not given here; response, % (concentration not given with the values); actives 0.43% (n = 340,000); AID 504454, 2011;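 active = response above a set limit, near 3 SD of response in nonfluorescent compounds, cut at about 42% in these data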;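 note: stock transfer was 100 nL into about 11 µL; a reference agonist was the positive control; negative values mostly stem from fluorescent compounds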
Target sequence (P07550 whole entry, looked up): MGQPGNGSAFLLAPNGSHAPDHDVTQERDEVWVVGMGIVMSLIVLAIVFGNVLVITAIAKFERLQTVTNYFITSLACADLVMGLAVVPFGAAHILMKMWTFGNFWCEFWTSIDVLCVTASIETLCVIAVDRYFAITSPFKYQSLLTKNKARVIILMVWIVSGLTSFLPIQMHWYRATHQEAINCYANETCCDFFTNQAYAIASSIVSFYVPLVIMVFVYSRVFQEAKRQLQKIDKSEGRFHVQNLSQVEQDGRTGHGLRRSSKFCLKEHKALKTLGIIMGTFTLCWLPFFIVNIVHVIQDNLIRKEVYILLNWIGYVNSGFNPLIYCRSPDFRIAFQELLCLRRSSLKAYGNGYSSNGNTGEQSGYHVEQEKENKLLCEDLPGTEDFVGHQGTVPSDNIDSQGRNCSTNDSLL
Vif A3G: inhibitors of Vif binding to APOBEC3G peptide, primary screen, biochemical, TR-FRET, GST-Vif 1-94, biotin-A3G peptide, dose response retest (AID 1117319); TR-FRET GST-Vif / biotin-A3G peptide binding; higher % means a stronger effect; test concentration not given here; strong numbers were not always called active; actives 0.57% (n = 260,000); Virion infectivity factor (Human immunodeficiency virus type 1 group M subtype B (isolate …; inhibition, %; hits with a dose series show IC50 in µM;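 active = above the screen mean plus three standard deviations and confirmed in dose response; inconclusive = results disagree or hit not tested in dose response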;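 note: Vif residues 1-94 fused to GST binding biotinylated APOBEC3G peptide 110-148; 0% = full assay without inhibitor and 100% = GST in place of GST-Vif; retest series ran down from 100 µM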
Calb FLC: C. albicans growth inhibition with fluconazole, primary screen, CaCi-2 strain, Alamar Blue fluorescence. actives 0.57% (n = 300,000). AID 1979, 2009. C. albicans CaCi-2 (fluconazole-resistant clinical isolate) + fluconazole, 48 h. growth inhibition, % (test concentration not listed);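 active = most replicates above 75%; inconclusive = exactly half above 75%; inactive = most below 75%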;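 note: all wells also contain fluconazole at 8 µg/ml as a sub-toxic cotreatment; 0% = median of DMSO wells and 100% = median of geldanamycin control wells; wells of about 8 µL received 7.5 nL stock; the first replicate is given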
ALR H2O2 inh: inhibitors of human ALR sulfhydryl oxidase, primary screen, biochemical, H2O2 detection, HRP-luminol luminescence, single point; actives 3.8% (n = 290,000); inhibition, % (test concentration not listed); AID 485317, 2010; purified ALR, DTT oxidation; FAD-linked sulfhydryl oxidase ALR (Homo sapiens), P55789;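 active = mean and each replicate at 75% or more; inconclusive = only one of the two met; inactive = neither met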;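 note: stock transfer was 7.5 nL into about 7.5 µL; 0% = neutral wells and 100% = wells with inactivated enzyme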
Target sequence (P55789 whole entry, looked up): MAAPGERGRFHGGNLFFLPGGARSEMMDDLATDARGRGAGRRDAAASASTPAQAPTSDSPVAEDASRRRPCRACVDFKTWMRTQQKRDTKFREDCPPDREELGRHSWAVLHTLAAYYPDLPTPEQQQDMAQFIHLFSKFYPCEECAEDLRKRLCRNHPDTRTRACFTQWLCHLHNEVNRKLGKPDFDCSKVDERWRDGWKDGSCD
An asterisk follows results filed as active; ? = inconclusive; nt = not tested or not shown; & = joins results of further samples. The order is random; any-hit rate near 6.3%.

Values in the order: HNF4A DNA FP | LANA-H2B inh | RanGTP-Impb inh | B2AR ag | Vif A3G | Calb FLC | ALR H2O2 inh
O=C(NC1CCN(C(=O)c2ccccc2Br)CC1)c1ccccc1
  -2.0 | 5.3 | -0.4 | 0 | -6% | -3 | -6
CCOC(=O)C1CCCN(C(=S)NC(=O)c2cc(Br)ccc2Cl)C1 (centres undefined)
  -1.5 | nt | nt | 4 | 4% | nt | nt
CCCCCn1c(=O)[nH]c2cc(C(=O)NCCCN3CCC(C)CC3)ccc2c1=O
  3.9 | -0.6 | 5.2 | -6 | -9% | 16 | -3
COc1cc(NC(=O)c2cccs2)c(OC)cc1NC(=O)CCn1nnc2ccccc21
  1.8 | 2.6 | -2.7 | -16 | 5% | -10 | -5
Cc1cc(C(=O)N/N=C/c2ccccc2Br)no1
  -0.6 | 1.9 | 4.1 | 1 | 6% | 24 | 14
CCCCN(C(=O)CCC(=O)O)C1CC(=O)N(c2ccc(OCCC)cc2)C1=O (centres undefined)
  -5.1 | 0.2 | 3.2 | 1 | 10% | 10 | -1
Cc1c(C(=O)N2CC(C)OC(C)C2)oc2ccccc12 (centres undefined)
  -0.4 | -2.9 | 6.8 | -3 | 31% | -18 | -2
O=C(N/N=C/c1ccco1)C1CC(=O)N(c2ccccc2)C1 (centres undefined)
  3.5 | -1.3 | -2.3 | -7 | nt | -6 | -3
COc1ccc(CN(CC(=O)NCc2ccc(F)cc2)C(=O)CCC(=O)Nc2nccs2)cc1
  -0.7 | 6.7 | -3.5 | -6 | nt | 10 | -6
CCOC(=O)c1c(NC(=O)CSc2nnc(CNc3ccc(F)cc3)o2)sc(C)c1C
  -0.6 | -0.1 | 1.5 | 13 | 1%&3% | -1 | -5
COc1ccccc1N1C(=O)c2ccc(C(=O)Nc3cccc(C(C)=O)c3)cc2C1=O
  -5.0 | -1.6 | -1.0 | 1 | 6% | 6 | 0
O=C(CN1C(=O)NC2(CCc3ccccc32)C1=O)NCC(F)(F)F (centres undefined)
  -1.6 | -0.6 | 2.2 | -7 | 3% | 3 | 1
O=C(CCCN1C(=O)c2cccc3cccc(c23)C1=O)N1CCN(c2ncccn2)CC1
  -3.2 | 7.6 | nt | -3 | -8% | nt | -3
Cc1cccc(-n2ncc3c2CCCC3NC(=O)C2(C(N)=O)CC2)c1C (centres undefined)
  3.3 | 0.3 | -5.3 | -4 | 4% | -6 | 3
CC(c1ccc(O)cc1)(c1ccc(O)cc1)c1ccc(CCBr)cc1
  -2.1 | -1.8 | 1.4 | -2 | -9% | -10 | 10
COc1ccc(-c2noc(N3CCC(C(=O)Nc4cc(OC)c(OC)c(OC)c4)CC3)n2)cc1
  0.7 | -2.9 | -2.8 | -6 | 2% | -17 | 21
Cc1cccc(/C=N/NC(=O)c2cc(Br)ccc2O)n1
  0.1 | 0.4 | 1.6 | -2 | nt | -8 | 8
Cc1nn(Cc2ccccc2Cl)c(C)c1NC(=O)c1noc(C(C)C)c1[N+](=O)[O-]
  2.7 | nt | 0.8 | -4 | 2% | -1 | -20
COc1ccc(CN2C(=O)NC3(CCCCC3)C2=O)cc1F
  2.8 | 5.0 | -0.9 | 2 | 7% | -30 | -22
C=CCNC(=O)/C(C#N)=C\c1cc(Cl)c(OCC)c(OC)c1
  -4.3 | -1.1 | 0.5 | 24 | nt | 0 | 98*

Going on with the list:
Values in the order: HNF4A DNA FP | LANA-H2B inh | RanGTP-Impb inh | B2AR ag | Vif A3G | Calb FLC | ALR H2O2 inh
COC(=O)c1nnn(-c2cc(Cl)cc(Cl)c2)c1C(=O)OC
  2.2 | 3.2 | -1.2 | 0 | nt | -1 | nt
CCCSc1ncc(Cl)c(C(=O)Nc2ccc(S(=O)(=O)N3CC(C)OC(C)C3)cc2)n1 (centres undefined)
  0.9 | nt | -2.6 | -16 | 25% | -41 | nt
O=C(Cn1c(=O)c2sccc2n(Cc2ccc([N+](=O)[O-])cc2)c1=O)NCCc1ccccc1
  1.3 | -3.2 | -2.4 | -5 | nt | -9 | -4
CCOC(=O)c1cnc2c(C(F)(F)F)cccc2c1NCCCN1CCOCC1
  3.6 | 9.2 | 7.4 | 6 | nt | 3 | -22
CC(=O)C1=C(O)C(=O)N(c2ccc(O)cc2)C1c1ccc(Cl)cc1 (centres undefined)
  3.8 | 3.6 | -4.1 | 9 | nt | 10 | 81*
CN(C(=O)c1ccco1)c1nnc(C23CC4CC(CC(C4)C2)C3)s1
  -2.6 | -2.6 | -0.5 | -6 | ? | 24 | -33
Cn1c2c(c(=O)n(C)c1=O)CN(CCCN1CCOCC1)CN2
  -0.8 | 2.6 | 0.1 | -3 | ? | 5 | -28
CC(C)(C)OC(=O)N[C@@H](C(=O)OC(C)(C)C)c1ccc(C(F)(F)F)cc1
  -1.4 | -1.9 | nt | 1 | nt | nt | 4
Cc1ccccc1-c1nnn(CC(=O)NC(=O)NC2CCCC2)n1
  1.0 | -4.6 | nt | -9 | nt | nt | -2
Cc1cc(C)cc(OCC(=O)Nc2ccc(N3CCN(S(C)(=O)=O)CC3)cc2)c1
  -0.3 | -3.2 | -3.0 | 6 | 10% | -1 | -7
CCCCC(=O)Nc1cccc(NC(=O)c2cccc(Br)c2)c1
  1.8 | -0.1 | -0.3 | 4 | -13% | -1 | -2
CC(C)=N/N=c1\scc(C)n1Cc1ccco1
  -1.1 | -5.7 | -0.8 | 5 | 3% | -8 | 49
O=[N+]([O-])c1ccccc1CCc1cnc(Cl)s1
  -1.9 | -2.5 | 2.8 | 2 | -1% | -2 | -1
CN(CC(=O)Nc1c(Cl)cccc1Cl)C(=O)CCC1CCCC1
  0.5 | 2.8 | 7.1 | -2 | nt | -23 | 1
COCCNC(=O)COc1ncnc2ccc(Br)cc12
  2.7 | 1.3 | 3.9 | -1 | 25% | 1 | 3
O=C(c1cc(S(=O)(=O)N2CCOCC2)ccc1F)N(Cc1nnc(-c2ccccc2Cl)o1)C1CC1
  2.5 | -10 | nt | 3 | 5% | 3 | 6
O=C(CN1CCN(S(=O)(=O)c2ccc(F)cc2)CC1)N1CCOCC1
  -3.4 | 14 | -5.7 | 5 | nt | -2 | -3
CCOc1ccc(NC(=O)Cn2sc3nc(C)cc(C)c3c2=O)cc1
  3.2 | -2.6 | -2.4 | 32 | 0% | 5 | 19
C=CCn1c(CCNC(=O)c2cccs2)nnc1SCC(=O)Nc1cccc(Cl)c1C
  -1.6 | 3.9 | -1.7 | 60* | -5% | 5 | 25
COc1ccc(C(=O)C(CN2CCOCC2)c2ccccc2)cc1F (centres undefined)
  -0.7 | nt | -0.9 | 3 | 2% | 1 | nt

More compounds:
Values in the order: HNF4A DNA FP | LANA-H2B inh | RanGTP-Impb inh | B2AR ag | Vif A3G | Calb FLC | ALR H2O2 inh
CC(NC(=O)COc1cccnc1[N+](=O)[O-])c1ccc(Cl)cc1Cl (centres undefined)
  1.9 | 0.9 | -1.6 | -1 | -10% | 10 | -7
Cc1ccc(/C=N/NC(=O)c2ccccn2)o1
  1.2 | 2.7 | 0.7 | -2 | nt | 42 | -6
CN(Cc1ccccn1)C(=O)c1ccc2nc(Cc3cccc(Cl)c3)oc2c1
  1.4 | -1.7 | ? | -4 | 11% | 12 | -9
CC(C)Cc1ccc(CN2CCCC(NC(=O)c3ccnn3C)C2)cc1 (centres undefined)
  3.5 | 6.5 | -2.4 | -2 | -8% | -17 | -1
COc1cc(OC)c(OC)cc1CNCC1COc2ccccc2O1 (centres undefined)
  1.9 | -0.3 | 0.6 | 19 | -2% | 3 | 2
COc1ccc(C(=O)N/N=C/C(C)c2ccccc2)cc1OC (centres undefined)
  -4.1 | -10 | -6.1 | 7 | 7% | -1 | -2
COc1ccc2[nH]c3c(c2c1)CCN1C(=O)C(CC(=O)NCC24CC5CC(CC(C5)C2)C4)C[C@H](C(=O)N2CCOCC2)[C@@]31C (some centres undefined)
  -0.9 | nt | nt | -5 | -3% | nt | nt
Cc1c(C(=O)Nc2cccc(N(C)S(C)(=O)=O)c2)cccc1[N+](=O)[O-]
  5.8 | 1.4 | -55 | -5 | -1% | 9 | -7
Nc1nonc1-n1nnc(C(=O)N/N=C/c2cccc(F)c2)c1CN1CCCCCC1
  3.2 | 1.9 | 6.7 | -3 | -9% | -2 | 15
O=C(Nc1ccc(S(=O)(=O)N2CCCC2)cc1)c1cncc(Br)c1
  2.7 | -23 | nt | 7 | -4% | nt | -5
Cc1ccc(S(=O)(=O)N2CCCC(C(=O)NCCc3ccc4c(c3)OCO4)C2)cc1 (centres undefined)
  5.3 | 1.3 | 9.3 | 0 | 8% | -6 | -5
COc1ccccc1N1CCN(c2ccc([N+](=O)[O-])cn2)CC1
  0.9 | 1.9 | 0.5 | 4 | nt | 1 | 8
C=C(C)CSc1nnc(-c2cccc(S(=O)(=O)N(C)C)c2)n1-c1cc(OC)ccc1OC
  0.5 | -4.6 | -0.7 | -6 | 1% | 2 | -3
CC(=O)OC1CCC2(C)C(=CCC3C2CCC2(C)C3CC3OC4(CCC(C)CN4)C(C)C32)C1 (centres undefined)
  1.0 | nt | ? | -1 | -1% | 21 | nt
CCOc1ccc(NC(=O)C2CCN(S(=O)(=O)c3cccnc3)CC2)cc1
  -1.4 | -3.0 | -1.4 | 3 | -1% | -5 | -2
CC1CCCC(NC(=O)COC(=O)c2ccc(S(=O)(=O)N3CCOCC3)cc2)C1C (centres undefined)
  0.1 | -2.1 | 2.0 | -3 | 4% | -4 | 9
O=C(CCNC(=O)c1ccccc1Cl)NCc1ccncc1
  0.8 | 1.2 | -2.9 | -14 | -1% | nt | -9
COc1cc(C(=O)OCC(=O)N2CCCCC2C)cc(NC(=O)c2cccs2)c1OC (centres undefined)
  -1.0 | -3.2 | -4.0 | -1 | -12% | 0 | -2
COc1cc2c(cc1O)CC[n+]1cc3c(OC)c(OC)ccc3cc1-2
  -3.4 | -1.0 | -0.7 | -1 | 24% | 99* | nt
COc1ccc(CCNC(=O)C/C(C)=N/NC(=O)c2ccc(N)cc2)cc1OC
  -3.6 | -5.0 | 3.3 | 5 | 5% | -17 | 8

Next part
Values in the order: HNF4A DNA FP | LANA-H2B inh | RanGTP-Impb inh | B2AR ag | Vif A3G | Calb FLC | ALR H2O2 inh
Nc1nnc(SCC(=O)NCC(=O)Nc2ccc(F)c(F)c2F)s1
  -0.8 | -2.2 | nt | -5 | -2% | nt | 1
Cc1ccc2c(c1)NC(=O)C(CC(=O)N(C)Cc1ccccc1)O2 (centres undefined)
  -0.9 | -3.0 | -0.4 | -4 | -2% | 3 | nt
CCc1ccc(N2CCN(C(=O)N3CCOCC3)CC2)cc1
  2.0 | 1.8 | -0.8 | 17 | nt | -4 | 44
COCC(=O)OC/C(O)=C(\C#N)c1nc2ccccc2[nH]1
  11 | -1.8 | 6.2 | 21 | nt | 2 | nt
Cc1ccc(C)c(N2CCN(c3nc4ccccc4c(=O)n3Cc3ccccc3)CC2)c1
  -0.7 | nt | 11 | 6 | 8% | 6 | nt
O/C(=C\Sc1nnc(Cc2ccccc2)o1)c1ccc(Br)cc1
  3.6 | -2.6 | 3.6 | -1 | -10% | -18 | -1
